CSC inhib – blocks cancer stem cells; cancer stem cell-like cells viability, luminescence; inhibition, % at 7.5 µM; 300,000 tested, 1.1% active; AID 2717;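 active = mean at 75% or more and at least half the replicates too; inconclusive = mean and replicates disagree; tested in HMLE shEcad cells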;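 also: 0% = median of negative and 100% = median of positive control wells; the first replicate is given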
Yeast UUG start – yeast start codon fidelity modulation. 350,000 tested, 0.13% active. AID 602363. activity score, % at 18.7 µM. S. cerevisiae UUG-firefly luciferase reporter, luminescence/redox ratio;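 active = replicate mean at a twofold rise or more, about +100% in these data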;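 also: firefly luciferase made from a UUG start codon reports start codon fidelity; reporter light over untreated wells divided by growth signal over untreated wells; some hits fall short of that in this replicate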
Rce1 inhib – blocks yeast Ras-converting enzyme. yeast membranes, quenched prenylated peptide cleavage fluorescence. calls only. 290,000 tested, 0.27% active. AID 2563;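 active = fall in fluorescence gain of 50% or more versus controls, with final raw signal at or below 3038400; inconclusive = same 50% fall but final raw signal above 3038400; inactive = fall in fluorescence gain under 50%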;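 also: plate controls were neutral control wells for no effect and wells lacking membranes for full effect; tested at 10 µM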
Target sequence (Q03530 whole entry, looked up): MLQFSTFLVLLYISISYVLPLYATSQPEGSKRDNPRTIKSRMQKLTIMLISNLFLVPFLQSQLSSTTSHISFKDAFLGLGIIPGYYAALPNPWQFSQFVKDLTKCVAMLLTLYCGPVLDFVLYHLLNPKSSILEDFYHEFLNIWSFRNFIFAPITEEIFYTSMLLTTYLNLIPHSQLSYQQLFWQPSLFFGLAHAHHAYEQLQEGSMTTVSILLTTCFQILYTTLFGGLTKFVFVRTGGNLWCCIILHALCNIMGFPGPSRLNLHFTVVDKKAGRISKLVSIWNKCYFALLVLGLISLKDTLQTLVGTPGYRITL
eIF4H FP inh – inhibitors of RNA binding by human eIF4H | eIF4H fluorescence polarization binding assay | Q15056 | inhibition, % at 35 µM | 290,000 tested, 0.94% active | AID 2012;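 active = 50% or more with normal probe brightness, or confirmed in later tests; inconclusive = above 50% with abnormal brightness, or retests that disagree; inactive = below 50% or failed in later tests; about a fifth of its hits are not listed in these tables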;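 also: calls also rest on retests at 20 µM and on dose response follow-up; 0% = protein and probe with vehicle and 100% = probe without protein; strong numbers were not always called active; many hits fall short of the cut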
HIV Env fusion – HIV envelope-mediated fusion inhibition; 360,000 tested, 1.1% active; HeLa-JRFL Env/CEM21 cell fusion, luciferase; inhibition, % at 12.3 µM; AID 651610;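 active = mean replicate inhibition score of at least 50 and every replicate individually at or above 50; inconclusive = only one of the two criteria met; inactive = mean below 50 and not all replicates reaching 50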;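 also: 0% = plate neutral controls and 100% = maraviroc near 300 nM; one replicate is shown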
MT1-MMP act inh – blocks activation of human MT1-MMP; P50281; HT1080 RFP-PRO-GFP cells, GFP/RFP ratio fluorescence, overnight; percent of plate control window, DMSO zero; GFP/RFP ratio change, % at 20 µM; 360,000 tested, 0.061% active; AID 651647;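 active = GFP/RFP ratio change of at least 30% with cell ATP level not reduced by more than half and red fluorescence within 50% of control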; also: strong numbers were not always called active
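Test system: HT1080 cells expressing an RFP-PRO-GFP fluorescent reporter construct / Compound dosing: single-point 20 µM compound, 1% DMSO / Schedule: cells overnight before dosing, compound overnight, 37 °C, 5% CO2 / Evaluation: GFP/RFP fluorescence ratio / Control set: DMSO and RFP-L50D-GFP cell wells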
PABP FP inh – blocks human PABP binding to poly(A) RNA; 290,000 tested, 1% active; P11940; fluorescence polarization; AID 2014; inhibition, % at 35 µM;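 active = 50% or more with normal probe brightness, or confirmed in later tests; inconclusive = above 50% with abnormal brightness, or retests that disagree; inactive = below 50% or failed in later tests; about a fifth of its hits are not listed in these tables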;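 also: calls also rest on retests at 20 µM and on dose response follow-up; controls were probe without protein and protein plus probe with vehicle; some compounds called inactive have numbers as strong as hits; many hits fall short of the cut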
eIF4H FP inh retest – further read-out of eIF4H FP inh, marked with its call; inhibition, %; compound at 20 µM; confirmation average;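 mean of two retest wells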
PABP FP inh retest – second read-out of PABP FP inh, no call of its own (marks repeat the call); inhibition, %; compound at 20 µM; confirmation repeats;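 mean of two retest wells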
MT1-MMP act inh RFP – also measured in MT1-MMP act inh; calls as there; RFP signal change, %; measured here: RFP expression control read;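 0 = vehicle wells; hits needed this value within 50% of zero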
* = called active by the depositor; i = inactive; ? = inconclusive; / = not tested or not shown. Only part of the results is shown, so the mix of outcomes need not match the whole.

SMILES	CSC inhib	Yeast UUG start	Rce1 inhib	eIF4H FP inh	HIV Env fusion	MT1-MMP act inh	MT1-MMP act inh RFP	PABP FP inh	others
COc1ccc(S(=O)(=O)NCCC(=O)OCC(=O)NC2CC2)cc1	/	5	/	/	-20	2	3	/
Cc1cccc(CNc2ncnc3ccc(-c4ccccc4Cl)cc23)c1	40	-19	/	/	-21	-1	-5	/
COc1ccc(CCNC(=O)c2ccn[nH]2)cc1OC	-4	-6	i	6	/	0	0	11
CC(C)n1c(CN(C)Cc2ccccc2)nc2c1c(=O)n(C)c(=O)n2C	10	/	i	-2	19	/	/	8
CCOc1[nH]n(-c2ccc(Cl)cc2)c(=O)c1C=Nc1ccc(O)cc1	30	5	/	?	34	14	2	?
N#CC1=C(SCC(N)=O)NC(=O)CC1c1ccccc1Cl (centres undefined)	5	-15	i	-9	-4	-5	0	4
O=C(O)c1cc(N/N=C/c2c(O)ccc3ccccc23)ccc1Cl	11	-10	i	-2	-127	-1	3	18
COc1ccc(C(=O)NC(=S)Nc2ccc(CN3CCOCC3)cc2)cc1	17	-5	i	-4	-11	5	-2	11
O=C(C=Cc1ccco1)c1cc(Cl)ccc1O	/	-5	/	/	6	-4	-1	/
CCOc1ccc(NC(=O)COc2ccccc2)c([N+](=O)[O-])c1	8	/	i	-6	-82	8	-2	-16
CC(CNC(=O)c1cncc(O)c1)NC(=O)c1cncc(O)c1 (centres undefined)	/	-6	i	1	/	7	6	13
Cc1cc(N2C(=O)c3ccc(C(=O)Nc4ccccc4O)cc3C2=O)no1	-3	8	i	-9	-15	1	4	6
CC(C)(C)OC(=O)N1CCCC(C(=O)Nc2ccc(C(=O)N3CCCC3)cc2)C1 (centres undefined)	-14	7	/	/	8	6	-1	/
CN(Cc1cccc(Cl)c1Cl)CC(O)COc1ccccc1 (centres undefined)	-2	-15	i	-41	20	0	-1	16
Cc1cc(C)c(OCCn2ccnc2)c(C)c1	-10	-22	i	-6	-64	2	4	0
Cc1nc2ccccc2c2nc(NC(=O)Cc3ccccc3)nn12	-6	/	i	3	-28	7	-3	-4
c1ccc2c(CSCc3nc4ccccc4[nH]3)cccc2c1	10	1	i	5	-15	7	-6	-3
Cc1cc(Br)cc2c(C(=O)NCC3CCCO3)cc(-c3ccccc3)nc12 (centres undefined)	11	-9	i	0	-33	1	-1	14
CCN1CCN(C(c2ccccc2)c2nnnn2CCc2ccc(OC)c(OC)c2)CC1 (centres undefined)	-13	-14	i	-6	/	-1	-1	13
NC(=O)c1ccsc1NC(=O)COC(=O)Cc1ccc(F)cc1	/	-25	/	/	4	0	-6	/
CC(=O)c1cccc(NC(=O)C2CCCN2S(=O)(=O)c2cccc3cccnc23)c1 (centres undefined)	6	-18	i	2	-26	-11	0	3
Cc1noc(C)c1COc1ccc(C(=O)OCC(=O)OC(C)(C)C)cc1	-2	/	i	-10	-47	-2	-1	1
COC(=O)c1ccc(OC)c(CSc2nnc(COc3ccc(OC)cc3)o2)c1	5	-13	i	6	-80	-5	-6	27
COc1ccc(N2CCN(C(=O)c3ccc(Br)cc3)CC2)c([N+](=O)[O-])c1	20	/	i	-9	10	5	-6	-12
COc1ccc(-c2cc(NC=O)c3ncc(-c4cc(OC)c(OC)c(OC)c4)n3c2)c(OC)c1	/	-16	/	/	-321	15	-2	/

Later entries
SMILES	CSC inhib	Yeast UUG start	Rce1 inhib	eIF4H FP inh	HIV Env fusion	MT1-MMP act inh	MT1-MMP act inh RFP	PABP FP inh	others
O=C(c1ccco1)N1CCN(S(=O)(=O)c2ccccc2)CC1	-5	-13	i	2	5	0	1	-5
CN(C(=O)COC(=O)/C=C/c1ccc(C(F)(F)F)cc1)C1CCS(=O)(=O)C1 (centres undefined)	-30	-10	i	-7	/	0	-1	-5
O=C(Nc1ccc(Cl)cc1)NC1CCS(=O)(=O)C1 (centres undefined)	-20	5	i	-3	-52	5	5	-3
Cc1c(CC(=O)N2CCC(O)CC2)c(=O)oc2cc3c(cc12)CCC1(CCCCC1)O3	/	2	/	/	-4	7	0	/
O=C(OCC(=O)N1CCC(Cc2ccccc2)CC1)c1ccccc1NCCO	-8	/	i	/	-8	-5	3	/
COc1ccc(NC(=O)CN(C)C(=O)CNC(=O)c2cccs2)cc1	-7	-15	i	1	-1	0	2	-8
COc1ccccc1NC(=S)NC(NC(C)=O)C(Cl)(Cl)Cl (centres undefined)	-13	-11	i	-4	-1	-4	-2	16
COc1ccc(COC(=O)CCc2cc(OC)c(OC)c(OC)c2)cc1F	/	-14	/	/	0	-2	0	/
Cc1ccc(S(=O)(=O)NC(CC(C)C)C(=O)N2CC(C)OC(C)C2)cc1 (centres undefined)	-4	-7	i	-15	8	-1	5	6
c1ccc(Cn2ncc3c(N4CCOCC4)ncnc32)cc1	15	10	i	9	/	6	-2	-4
Cc1ccc(S(=O)(=O)Nc2ccc(NC(=O)c3cccnc3)cc2)cc1	-2	-18	i	-2	-19	3	-5	47
Oc1ccc(/C=N/N2CCN(Cc3ccccc3)CC2)cc1	-5	-23	i	1	-33	5	-2	6
COc1ccc(Cl)cc1NS(=O)(=O)c1cccc(C(=O)NCC2(N(C)C)CCCCC2)c1	17	-3	i	-2	5	-1	1	5
O=C1CN(C(=O)/C=C/c2cc(Br)ccc2F)CCN1	-3	-19	/	-12	16	2	5	-5
CCN(CC)c1ccc(NC(=O)CN(C)Cc2cccs2)cc1	-6	-11	i	2	15	3	1	5
O=[N+]([O-])c1cccnc1Sc1n[nH]c(-c2ccc(Cl)cc2)n1	0	/	i	11	-17	6	1	6
CCOc1ccc(-n2c(=S)sc3c(=O)[nH]c(SCC(=O)NCc4ccco4)nc32)cc1	-9	/	i	22	13	-2	0	10
COc1ccc(-n2c(CN3CCN(C)CC3)nc3ccc([N+](=O)[O-])cc3c2=O)c(OC)c1	-9	-12	i	-6	14	-6	-1	2
O=C(COC(=O)/C=C/c1ccc(Cl)cc1Cl)Nc1cc(C(F)(F)F)ccc1N1CCOCC1	-4	/	i	2	/	-8	2	0
O=C(NCc1ccccn1)/C(=C/c1ccco1)NC(=O)c1ccccc1	-6	/	i	82*	9	-1	5	0.3*	eIF4H FP inh retest=97*;PABP FP inh retest=102*
CCc1ccc(NC(=O)CSc2nnnn2C)cc1	-5	-21	i	-2	-24	4	3	-8
C/C=C/C(=O)OCC(=O)Nc1ccc(OC)c(OC)c1	10	/	i	5	4	-1	0	10
CN(/N=C/c1cccs1)c1cc(=O)n(C)c(=O)[nH]1	9	-7	i	-1	/	-3	0	7
CS(=O)(=O)c1ccc2nc(NC(=O)c3ccc(Cn4cc(Br)cn4)o3)sc2c1	-5	-11	i	3	7	2	-1	6
CCCC(O)(c1ccccc1)C(CN1CCOCC1)c1ccccc1 (centres undefined)	0	7	i	11	0	-10	-3	2

Compounds above that have fluorine, in the order listed:
SMILES	CSC inhib	Yeast UUG start	Rce1 inhib	eIF4H FP inh	HIV Env fusion	MT1-MMP act inh	MT1-MMP act inh RFP	PABP FP inh	others
NC(=O)c1ccsc1NC(=O)COC(=O)Cc1ccc(F)cc1	/	-25	/	/	4	0	-6	/
CN(C(=O)COC(=O)/C=C/c1ccc(C(F)(F)F)cc1)C1CCS(=O)(=O)C1 (centres undefined)	-30	-10	i	-7	/	0	-1	-5
COc1ccc(COC(=O)CCc2cc(OC)c(OC)c(OC)c2)cc1F	/	-14	/	/	0	-2	0	/
O=C1CN(C(=O)/C=C/c2cc(Br)ccc2F)CCN1	-3	-19	/	-12	16	2	5	-5
O=C(COC(=O)/C=C/c1ccc(Cl)cc1Cl)Nc1cc(C(F)(F)F)ccc1N1CCOCC1	-4	/	i	2	/	-8	2	0

Retrieved one by one from the entries so far, 2 records:
SMILES	CSC inhib	Yeast UUG start	Rce1 inhib	eIF4H FP inh	HIV Env fusion	MT1-MMP act inh	MT1-MMP act inh RFP	PABP FP inh	others
Cc1c(CC(=O)N2CCC(O)CC2)c(=O)oc2cc3c(cc12)CCC1(CCCCC1)O3	/	2	/	/	-4	7	0	/
COc1ccc(COC(=O)CCc2cc(OC)c(OC)c(OC)c2)cc1F	/	-14	/	/	0	-2	0	/

Going on with the list.
SMILES	CSC inhib	Yeast UUG start	Rce1 inhib	eIF4H FP inh	HIV Env fusion	MT1-MMP act inh	MT1-MMP act inh RFP	PABP FP inh	others
O=C(CSc1nnnn1-c1cccc2ccccc12)Nc1ccc(C(=O)O)cc1	-13	-17	i	0	8	2	3	-3
c1ccc(OCCOCCN2CCOCC2)cc1	6	/	i	-7	-66	4	2	-7
CCOC(=O)C(=O)N1CCN(c2cc3c(cc2[N+](=O)[O-])n(C)c(=O)n3C)CC1	-12	-9	i	0	5	1	-3	-3
COc1cc(-c2nnc(CSc3nnc(Nc4ccc(Oc5ccccc5)cc4)s3)o2)cc(OC)c1OC	39	/	i	-7	-14	-2	-11	-16
C=C1C(=O)N(C)CCC1C(CC)C(=O)OC (centres undefined)	/	-12	/	/	-7	0	3	/
O=C(Cc1cccc(C(F)(F)F)c1)Nc1ccccc1	14	/	i	-14	-285	3	0	-3
CCC(C)NC(=O)CN1C(=O)NC2NC(=O)NC21 (centres undefined)	5	/	i	-7	8	-1	-2	-6
CC1(C)CC(=O)C(C=NCC(O)c2ccccc2)=C(O)C1 (centres undefined)	-5	/	i	-11	-19	-1	3	-3
CC(C)(C)c1ccc(CC(=O)N2CCC2(C)C(=O)Nc2cccc3ccccc23)cc1 (centres undefined)	/	-10	/	/	13	3	-3	/
N=C(N)Cc1ccccc1Sc1ccccc1	2	-11	i	-2	/	1	11	1
CCOC(=O)c1ccccc1NC(=O)c1ccc(Cl)c(S(=O)(=O)N2CCOCC2)c1	/	-15	/	/	-56	5	-6	/
Cc1c(N=Cc2cccs2)c(=O)n(-c2ccccc2)n1C	-4	5	i	-3	/	3	4	-1
COc1cccc(C(=O)Nc2cc(=O)n(C)c(=O)n2C)c1OC	2	-16	i	-2	-27	10	14	-6
CC(=O)Nc1cccc(NC(=O)CSc2nc(C3CC3)nc3ccccc23)c1	/	-13	i	-6	4	-4	-16	0
O=C(Cc1cccc(C(F)(F)F)c1)OCN1C(=O)c2ccccc2C1=O	-3	-19	i	2	-35	3	3	9
CCOc1ccc(N2CC(C(=O)Nc3nnc(C4CCCCC4)s3)CC2=O)cc1 (centres undefined)	-1	-6	i	3	5	-3	-2	-2
Cc1ccc(-c2nn(-c3ccccc3)cc2C(=O)NCC(c2cccs2)N2CCOCC2)cc1 (centres undefined)	0	/	i	/	/	-4	-7	/
N#C/C(=C\c1ccc(OC(=O)c2ccccn2)cc1)C(N)=O	-10	/	i	0	-35	1	5	13
O=C(N/N=C/c1ccc(Cl)s1)C(O)c1ccccc1 (centres undefined)	-9	-10	i	-1	-30	1	2	8
COCCn1c(SCC(=O)Nc2ccc(OC)cc2)nnc1-c1ccoc1C	/	-5	i	-1	6	-1	1	0
